# Compound activity (PubChem)
# HPGD inh: qHTS Assay for Inhibitors of HPGD (15-Hydroxyprostaglandin Dehydrogenase). purified HPGD, NADH fluorescence kinetic, PGE2 substrate. Potency, µM, inactives show top-dose activity change, negative = inhibition, hits mostly inhibitors. 150,000 tested, 4.3% active; active = well fitted inhibition curve with a large enough effect (not every such curve was filed as active); inconclusive = small, poorly fitted or top-dose-only effect, or another doubt; inactive = no such curve, though single readings can be large or run the other way;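 also: top concentration of the series not given in the record; plate controls included wells without enzyme; inactives centre near -10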
# Target sequence (P15428 whole entry, looked up): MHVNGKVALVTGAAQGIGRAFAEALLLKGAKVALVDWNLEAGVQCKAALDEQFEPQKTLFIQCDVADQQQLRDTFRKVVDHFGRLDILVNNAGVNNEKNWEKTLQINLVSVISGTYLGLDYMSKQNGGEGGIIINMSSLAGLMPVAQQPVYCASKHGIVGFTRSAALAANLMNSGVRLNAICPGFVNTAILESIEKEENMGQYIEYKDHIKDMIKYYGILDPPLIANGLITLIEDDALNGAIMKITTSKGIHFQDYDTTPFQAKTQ
#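 NADH formation kinetics: reaction with 30 uM PGE2 and 1 mM NAD+ (final), 20 nM enzyme, Tris-HCl pH 8 with Tween 20, after 15 min compound preincubation at room temperature. Fluorescence change, last versus first of five reads.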
# Numbers without * were called inactive; ? = inconclusive; & = joins results of further samples. % is scaled to controls: 0 for no effect and ±100 for the full control effect; potency is read from the fitted curve at half-maximal effect. The list is partial; count on the stated rates, not on these rows.
SMILES,HPGD inh
NC(=O)C(CC(=O)O)NC(=O)[C@@H]1CCOc2c(I)cc([N+](=O)[O-])cc2C(=O)N[C@@H](CCC(=O)O)C(=O)N[C@@H](CO)C(=O)N1 (stereo partly specified),-3.4%
COc1ccccc1N1C(=O)N(C(C)=O)C2C1Nc1ccccc1N2C (stereo unspecified),-10.0%
Cc1ccc(CNC(=O)C2CC(c3ccccc3[N+](=O)[O-])=NO2)o1 (stereo unspecified),-25.9%
Cc1cccc(NC(=O)[C@H](Cc2ccccc2)NC(=O)OCc2ccccc2)c1,-5.2%
N#CC1=C(SCc2ccccc2)NC(=O)CC1c1ccco1 (stereo unspecified),-28.4%
Cc1ccc(OCc2nnc(SCC(=O)Nc3ccc4c(c3)OCO4)n2C)cc1,-10.2%
CC1(C)CC(=O)c2c(oc3cc(O)c(O)cc23)C1,6.31µM*
O=C(NCc1ccccc1)C1CCC(CNc2c(N3CCCCC3)c(=O)c2=O)CC1 (stereo unspecified),20µM*
O=C(O)CSc1ccc([N+](=O)[O-])cc1[N+](=O)[O-],-5.9%
O=c1c(Sc2ccccc2)c(C(F)(F)F)[nH]n1-c1ccccc1,-14.3%
CC(C)NC(=O)c1cc(-n2cnnc2)ccc1Cl,3.7%
Cc1ccc(-c2cn3cccnc3n2)cc1NC(=O)c1ccc(Br)o1,?
CCOC(=O)N1CCN(C(=O)CN(c2ccc(OCc3ccccc3)cc2)S(C)(=O)=O)CC1,-6.5%
COc1ccc(C2c3c(n[nH]c3C)CC(C)(O)C2C(C)=O)cc1OC (stereo unspecified),-12.3%
CCCn1c(N)c(C(=O)CSc2nnc(C3CC3)n2Cc2ccccc2)c(=O)[nH]c1=O,-1.4%

# Printed as active in HPGD inh (from the list above):
SMILES,HPGD inh
CC1(C)CC(=O)c2c(oc3cc(O)c(O)cc23)C1,6.31µM*
O=C(NCc1ccccc1)C1CCC(CNc2c(N3CCCCC3)c(=O)c2=O)CC1 (stereo unspecified),20µM*

# Continuation:
SMILES,HPGD inh
O=C(Nc1nc(-c2ccc(Cl)s2)cs1)c1ccccc1,-21.3%
CCC(C)(C)OC,-8.1%
COC(=O)CCC(=O)CN,-7.8%
CC(NC(=O)c1cc2ccccc2o1)C(=O)O (stereo unspecified),-5.7%
O=c1[nH]c2cc3c(cc2cc1C(c1nnnn1CC1CCCO1)N1CCCCCC1)OCCO3 (stereo unspecified),-17.0%
O=C(NCCO)c1cccc(Nc2nc(-c3ccccc3)c3cc(Cl)ccc3n2)c1,-16.2%
Cc1cc(C)n2nc(SCC(=O)c3ccccc3)nc2n1,-23.4%
CCOC(=O)N1CCC(NC(=O)CN2C(=O)C(CC)Oc3ccc(C)cc32)CC1 (stereo unspecified),-6.2%
COc1ccc(N2C(=O)/C(=C\c3ccco3)N=C2SCC(=O)NC(C)(C)C)cc1Cl,-22.3%
COC(=O)c1ccccc1NC(=O)C1CCCN(S(=O)(=O)c2ccc(OC)cc2)C1 (stereo unspecified),-15.1%
O=C(N/N=C/c1ccc[nH]1)c1ccc([N+](=O)[O-])cc1,-3.7%
COC(=O)CCNS(=O)(=O)c1ccc2ccccc2c1,-0.1%
Cc1ccc(F)c(NC=C2C(=O)OC(C)(C)OC2=O)c1,-27.4%
COc1cc(/C=C2/C(=O)N=C(N)N2C)cc(OC)c1OC,15.8µM*
O=c1ccccn1Cc1c(F)cccc1Cl,-7.5%
O=C(NC(=S)NCCc1ccccc1)C1CCCCC1,-5.8%
Cc1ccnc(N2C(=O)CSC2c2ccc(Cl)cc2)c1 (stereo unspecified),-18.6%
Nc1ncnc2c1ncn2C[C@@H](O)C(=O)O,-8.2%
Cn1c(=O)c(CCc2ccccc2)nc2cncnc21,-11.4%
CCc1ccccc1NC(=O)N[C@H](C(=O)O)C(C)CC (stereo partly specified),-4.3%
CCOC(=O)N1CCC(Nc2c(Nc3ccc(C)c(C)c3)c(=O)c2=O)CC1,-16.8%
COCCn1c(=S)[nH]c2cc(C(=O)NCCCN3CCOCC3)ccc2c1=O,-15.0%
O=[N+]([O-])c1ccccc1N/N=C/c1cc2ccccc2nc1Cl,-23.5%
COc1cccc(N2CCN(Cc3nc4ccccc4c(=O)[nH]3)CC2)c1,-2.3%
COCCn1cnc2cc(C)c(C)cc21,-3.7%
Cc1ccc(-c2nnc(NCc3nc4ccccc4[nH]3)c3ccccc23)cc1S(=O)(=O)N1CCOCC1,-22.9%
Cc1cc(OCCn2cnc3ccccc3c2=O)ccc1[N+](=O)[O-],1.3%
COC(=O)c1ccc(NC(=O)Cn2nc(-c3ccncc3)nc2SCC(=O)Nc2nccs2)cc1,-1.5%
Fc1ccc(CNc2nc(-c3ccco3)cc(C(F)(F)F)n2)cc1,?
CCOC(=O)c1ccc(N2C(=O)C(O)=C(C(C)=O)C2c2ccccc2)cc1 (stereo unspecified),-14.6%

# Of the compounds above, these have a CF3 group:
SMILES,HPGD inh
O=c1c(Sc2ccccc2)c(C(F)(F)F)[nH]n1-c1ccccc1,-14.3%
Fc1ccc(CNc2nc(-c3ccco3)cc(C(F)(F)F)n2)cc1,?

# Continuation.
SMILES,HPGD inh
Oc1cccc(O)c1,1.3%&0.8%
COc1ccc(CNc2ncncc2-c2ccccc2Cl)c(OC)c1,-13.0%
COc1cccc(CNS(=O)(=O)c2cccc(S(=O)(=O)N3CCOCC3)c2)c1,2.1%
COc1cc(/C=C/C(=O)c2c(O)cc(C)oc2=O)ccc1O,-29.7%
O=C(O)c1cccc(CSc2nnc(COc3ccccc3)o2)c1,?
O=C(OCc1ccc(Cl)cc1)c1ccccc1C(=O)c1ccccc1,-18.2%
O=C(Nc1nc2n(n1)C(c1ccc(Cl)cc1)CC(c1ccc(Cl)cc1)N2)c1ccco1 (stereo unspecified),-12.8%
COC(=O)c1ccc(/C=N/NC(=O)CC(=O)NC(C)C)cc1,-12.1%
COc1ccccc1-c1ccc(=O)n(CC(=O)Nc2ccc(C(=O)N3CCCC3)cc2)n1,14.1µM*
N#C/C(C(N)=O)=C1/CCc2ccccc2N1,-23.4%
O=c1c(-c2ccccc2)nc2cnc(N3CCNCC3)nc2n1Cc1ccc(F)cc1,?
CC1(C)Cc2ccccc2C(Nn2cnnc2)=N1,-2.3%
CC(C)(C)NCC(O)COc1ccccc1C(=O)CCc1ccccc1 (stereo unspecified),0.4%
Cc1ccc(/C=C(\C#N)c2nc3ccccc3[nH]2)s1,-7.6%
CCNc1ncc2nc(CCc3ccccc3)c(=O)n(CCOC)c2n1,?
CC1=CCn2c(=O)c3ccccc3c(=O)n2C1,-0.8%
O=C(O)CC1(CC(=O)Nc2ccc3ccccc3c2)CCCCC1,3.98µM*
CS(=O)(=O)N(Cc1ccc(F)cc1)Cc1nc2ccccc2c(=O)[nH]1,-0.6%
O=C(NC(=S)Nc1ccccc1)c1csnn1,-29.4%
O=C(COc1ccccc1)NC(Cc1c[nH]c2ccccc12)C(=O)O (stereo unspecified),-10.4%
Cc1[nH]nc2c1C(c1ccccc1F)CC(=O)N2 (stereo unspecified),-18.1%
CCCCc1ccc(NC(=S)Nc2ccc(Nc3ccc(OC)cc3)cc2)cc1,?
CCn1cc(NC(=O)Nc2ccccc2C(=O)OC)c(C(N)=O)n1,-5.1%
CC(C)(C)C(=O)NC(=S)NCCc1ccccc1,-9.5%
CC(C)C(=O)NC(Nc1cc(C(F)(F)F)ccc1Cl)C(Cl)(Cl)Cl (stereo unspecified),-1.6%
CCOC(=O)C1=C(C)NC(SCC(=O)Nc2cc(C)on2)=C(C#N)C1c1cccs1 (stereo unspecified),-4.5%
COc1ccc(OC(C)C(=O)NC2CC(C)(C)NC(C)(C)C2)cc1 (stereo unspecified),-13.9%
COC(=O)c1ccc(-c2ccco2)n1Cc1cc(C)ccc1C,?
Cc1cnc(C(=O)Nc2ccc3c(c2)CCC3)cn1,-3.4%
O=C(NCCCN1CCOCC1)c1ccc2c(=O)n(CCc3ccccc3)c(=O)[nH]c2c1,-7.7%
Cc1ccc(-c2nnn(CC(=O)NC3CC4CCC3C4)n2)cc1 (stereo unspecified),-13.3%
O=C(COC(=O)c1ccccc1NC(=O)C1CC1)c1ccc2c(c1)OCCO2,-20.4%
COc1cccc(C(=O)N2CCN=C2SCc2cccnc2)c1OC,-19.4%
O=C1CCc2cc(S(=O)(=O)N3CCCC3C(=O)NC3CCCCCCC3)ccc2N1 (stereo unspecified),3.7%
Cn1c(Cn2c(=O)sc3ccccc32)nnc1SCC(=O)NCc1ccccc1Cl,-13.6%
CNC(=O)/C=C/c1cccc(C(F)(F)F)c1,-1.7%
CCCCC[C@H](O)/C=C/C=C\C/C=C\CCCCC(=O)O,1.5%
CCCCn1c(=N)n(CC(O)COc2ccc(C)cc2)c2ccccc21 (stereo unspecified),-10.5%
Cc1ccc(SC(C)c2nc(-c3cccnc3)no2)cc1 (stereo unspecified),-26.5%
OC(CCl)CCl,1.8%
CC(C)Cn1cc(C(=O)NCCCN2CCCC2=O)c2c3ccccc3n(C)c2c1=O,?
Cn1c(SC2CCCCC2=O)nnc1-c1ccncc1 (stereo unspecified),-6.4%
Cc1ccc(C(=O)Oc2ccccc2N2C(=O)C3C4CCC(C4)C3C2=O)cc1 (stereo unspecified),1.8%
Cn1c(=O)c2c(nc(N3CCCCCC3)n2CC(=O)c2ccccc2)n(C)c1=O,-11.9%
CC(/C=N/NC(=O)Cn1cnc2c1c(=O)n(C)c(=O)n2C)=C\c1ccccc1,-5.5%
O=C(CN(C(=O)Cn1nnc(-c2cccs2)n1)c1ccc2c(c1)OCCO2)NCc1ccccc1,-15.7%
Cc1nn(-c2nc3ccccc3n2Cc2ccccc2)c2c1C(=O)CC(C)(C)C2,-17.1%
CCOC(=O)c1sc(=N)n(-c2ccc(OC)cc2)c1C,-17.1%
Cc1ccc(N(CC(O)CN(C)C)S(=O)(=O)c2ccccc2)cc1 (stereo unspecified),-1.3%
CCOC(=O)c1cc(-c2ccco2)nc2c1c(C)nn2-c1ccccc1,-24.1%
O=C(NCc1ccc2c(c1)OCO2)c1ccc(Cl)c(S(=O)(=O)NCc2ccccc2)c1,-18.9%
Cc1ccccc1NS(=O)(=O)c1cc(C(N)=O)ccc1C,-9.2%
COc1cc(OC)c(OC)cc1CN1CCN(Cc2cccn2C)CC1,-3.5%
COc1ccccc1CN1CC(C(=O)N2CCN(c3ccc(F)cc3)CC2)CC1=O (stereo unspecified),-12.2%
CC(C)Oc1ccc(CNC(=S)N/N=C/c2cccnc2)cc1,-27.1%
O=C([C@H](Cc1ccccc1)NS(=O)(=O)c1ccc(Cl)cc1)N1CC[C@@]2(O)CCCC[C@H]2C1,4.2%
O=C(CNS(=O)(=O)c1ccccc1)OCC(=O)c1cccc([N+](=O)[O-])c1,-2.9%
CC1CC(C)CN(C(=O)CN2CCN(Cc3ccc(Cl)cc3)C2=O)C1 (stereo unspecified),-6.2%
Cc1cccc2ccccc12,-2.4%
COc1cccc(C(=O)CN2CCC(NC(=O)NC3CCCCC3)CC2)c1,-9.4%

# Some of the entries above in a different format:
> CCOC(=O)c1sc(=N)n(-c2ccc(OC)cc2)c1C
  HPGD inh: -17.1%

> Cc1ccc(N(CC(O)CN(C)C)S(=O)(=O)c2ccccc2)cc1 (stereo unspecified)
  HPGD inh: -1.3%

# Further structures:
SMILES,HPGD inh
Cc1ccc(Nc2nc(N)c([N+](=O)[O-])c(NCc3ccco3)n2)cc1,-14.5%
CCn1c(COc2cccc(C)c2)nnc1SCC(=O)N1CCCC1,-13.4%
CC(C)(C)NC[C@H](O)c1cc(O)cc(O)c1,-0.3%
CC(C)CC(C)NNC(=O)c1cc2ccccc2[nH]1 (stereo unspecified),-26.9%
CCNC(=S)NNC(=O)c1cccn(Cc2ccc(Cl)cc2Cl)c1=O,-12.2%
Cc1ccc(S(=O)(=O)NC(C)(C)CSc2nncn2C)cc1,-2.1%
CCOc1ccc(NC(=O)c2ccc(CNc3c(NC4CCCCC4)c(=O)c3=O)cc2)cc1,-11.1%
CCCN1CCN(C(=O)c2cn(CC(C)C)c(=O)c3cc(OC)c(OC)cc23)CC1,-4.1%
CC(=O)c1c(C)nc2ccc(Br)cc2c1C(=O)O,-11.4%
CCN(CC)CCn1c(=S)[nH]c2ncccc2c1=O,-7.4%
O=C(Nc1ncnc2sc3c(c12)CCC3)c1ccco1,?
CCN(CC)C(=O)c1ccc(COc2ccccc2Br)o1,?
O=S(=O)(NCC1CCCO1)c1ccc2c(c1)OCCO2 (stereo unspecified),-12.3%
Cc1ccc(-n2c(Cc3cccs3)nnc2SCC(=O)Nc2ccc(F)c(F)c2)cc1,-5.1%
O=C(NCc1ccc2c(c1)OCO2)C1CC(=O)N(c2ccc(F)cc2)C1 (stereo unspecified),-6.0%
COc1ccc(C/C(=N\O)c2ccc(OC)cc2)cc1,-27.3%
CC(=C/C(=O)O)/C(=C/c1ccccc1)C(=O)O,-14.0%
Cc1nn(C(C)c2n[nH]c(=S)n2-c2ccc(F)cc2)c(C)c1[N+](=O)[O-] (stereo unspecified),-2.6%
CC(OC(=O)C1CCC(=O)N1)C(=O)Nc1cc(Cl)cc(Cl)c1 (stereo unspecified),-14.4%
CCOc1ccc(-n2c(Cc3cc(=O)[nH]c(=O)[nH]3)nnc2SCC(N)=O)cc1,-6.4%
COc1cc(C(=O)NCCC(=O)NC2CCCCCCC2)cc(OC)c1OC,-3.0%
CCCc1nn2c(=O)c(C(c3ccc(C)cc3)c3c(O)nc4sc(CCC)nn4c3=O)c(O)nc2s1,-26.2%
Nc1nc(Cl)cc(N2CCC(c3cc(-c4ccc(Cl)cc4Cl)n[nH]3)CC2)n1,-10.9%

# A stretch of the results above, for reference:
SMILES,HPGD inh
COc1ccc(C/C(=N\O)c2ccc(OC)cc2)cc1,-27.3%
CC(=C/C(=O)O)/C(=C/c1ccccc1)C(=O)O,-14.0%
Cc1nn(C(C)c2n[nH]c(=S)n2-c2ccc(F)cc2)c(C)c1[N+](=O)[O-] (stereo unspecified),-2.6%
CC(OC(=O)C1CCC(=O)N1)C(=O)Nc1cc(Cl)cc(Cl)c1 (stereo unspecified),-14.4%
CCOc1ccc(-n2c(Cc3cc(=O)[nH]c(=O)[nH]3)nnc2SCC(N)=O)cc1,-6.4%
